Assay outcomes from PubChem BioAssay.
Tg IFNy HTS: blocks Toxoplasma gondii growth in the presence of IFN-gamma | Toxoplasma gondii growth in IFN-gamma-treated host cells; stronger effect = lower value; reference of the scale not given here | activity change, negative = inhibition, %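 (about 20 µM by stock and volumes)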 | actives 3.8% (n = 69,000);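 active = below -70%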;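 note: host cells are HeLa cells infected with Toxoplasma gondii; parasite growth read as luciferase light; one replicate is shown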
Starred values were filed as active, the others as inactive; & = joins results of further samples. These rows are one share of the data (hit frequency here may not be typical).

SMILES | Tg IFNy HTS
CO[C@@H]1CC[C@H]2CCN(C)C(=O)[C@H](C)CN(C)C(=O)c3cc(C#N)ccc3OC[C@H]1O2 | 40
COc1ccc(C)cc1NC(=O)c1c(O)c2cccnc2n(-c2ccc(F)cc2)c1=O | 78
Cc1nc(CN2CCC(O)(c3ccccc3F)CC2)c2ccccn12 | 214
CC(=O)C1=C(O)C(=O)N(Cc2cccnc2)C1c1ccc(C(C)C)cc1 (stereo unspecified) | -2
CCc1cccc(C)c1NC(=O)COc1nc(C)nc2ccccc12 | 7
Fc1ccc2c(c1)/C(=N\Nc1cc(C(F)(F)F)ccc1Cl)CCO2 | -26
CCOc1ccc(C(=O)NCCc2csc(-c3ccc(OC)cc3)n2)cc1 | 38
COc1ccc(-n2cc(CNCc3cc(C)no3)c(-c3ccccc3Cl)n2)cc1 | -11
O=C(C[C@H]1CC[C@@H]2NC[C@@H](O)COC[C@H]2O1)NCCN1CCCCC1 | -3
CCOC(=O)C1CCN(C(=O)Cn2cccc2-c2nc(-c3ccc(C)cc3)cs2)CC1 | -45
O=C(CCC(=O)N1CCc2ccccc21)N1CCc2ccccc21 | 0
O=C(CCn1nnc2ccccc21)NCc1cnn2ccccc12 | -3
COc1cccc(OC)c1-c1ccc(C(=O)NC2CCCCC2)o1 | -4
C[C@H]1CN([C@@H](C)CO)C(=O)CCCn2nncc2CO[C@@H]1CN(C)Cc1ccc2cccnc2c1 | 55
CCCCN(Cc1ccco1)C(=O)C1CCN(c2ncccn2)CC1 | -11

Random excerpt: 4 entries already listed.
SMILES | Tg IFNy HTS
O=C(C[C@H]1CC[C@@H]2NC[C@@H](O)COC[C@H]2O1)NCCN1CCCCC1 | -3
Fc1ccc2c(c1)/C(=N\Nc1cc(C(F)(F)F)ccc1Cl)CCO2 | -26
O=C(CCC(=O)N1CCc2ccccc21)N1CCc2ccccc21 | 0
CO[C@@H]1CC[C@H]2CCN(C)C(=O)[C@H](C)CN(C)C(=O)c3cc(C#N)ccc3OC[C@H]1O2 | 40

(list continues)
SMILES | Tg IFNy HTS
Cc1cc(-c2ccccc2)nc(N2CCC(C(=O)NCc3ccccc3Cl)CC2)n1 | -1
C[C@H](CO)N1C[C@H](C)[C@@H](CN(C)Cc2ccc(C(=O)Nc3ccccc3N)cc2)OCc2cnnn2CCCC1=O | 245
CO[C@H]1CC[C@H]2CCN(C)C(=O)[C@H](C)N(C)C(=O)c3cccc(C#N)c3OC[C@H]1O2 | -49
CN1CC2(CCCN(C(=O)c3cccc4nccnc34)C2)OC1=O (stereo unspecified) | 1
Cn1c(CN2CCCCC2c2ccccn2)cc2cc(F)ccc21 (stereo unspecified) | 43
CC(=O)c1ccc(F)cc1-c1ccc(C(C)N2CCOCC2)cc1 (stereo unspecified) | -3
CC(C)n1c2ccccc2c2c1cc(C(=O)NC1CC1)n2S(C)(=O)=O | 135
COc1ccc(-c2nc(CSc3nc4c(c(=O)[nH]3)CN(Cc3ccc(F)cc3)CC4)c(C)o2)cc1 | -26
COCC(=O)N1CC[C@@H]2[C@@H](CO)Nc3ccc(C#Cc4ccc(F)cc4)cc3[C@@H]21 | 8
C(=C\c1ccc(C2[C@H]3CNC[C@@H]2N3Cc2cncnc2)cc1)/c1ccccc1 (stereo partly specified) | 7
Cc1nc(-c2cc(S(=O)(=O)NCCCN3CCCC(C)C3)c(C)s2)sc1C (stereo unspecified) | -21
C[C@@H]1CN([C@@H](C)CO)C(=O)c2ccccc2-c2ccccc2CO[C@@H]1CN(C)C(=O)Nc1cccc(Cl)c1Cl | -32
COc1ccc(F)cc1C(=O)C1CCCN(CCc2c[nH]c(=O)n(C)c2=O)C1 (stereo unspecified) | 0
COc1cccc(-n2cc(CN(C)CC3CCOC3)cn2)c1 (stereo unspecified) | 9
Cc1cc(C)cc(NC(=O)CC(=O)NC(c2cccnc2)C(F)(F)F)c1 (stereo unspecified) | 5
Cc1cc(C)c2c(=O)n(Cc3nc(-c4ccc(OC(C)C)cc4)oc3C)c(=O)n(-c3ccccc3)c2n1 | -54
Cc1nn(C(=O)c2ccccc2)c(C)c1Sc1nnnn1-c1ccccc1 | -28
O=C(O)C(c1ccc(O)cc1)n1cnnn1 (stereo unspecified) | 26
COCCCN1CCc2nc(SCc3nc(-c4cccc(Cl)c4)oc3C)[nH]c(=O)c2C1 | 0
Cc1ccc(S(=O)(=O)N2CCC3(CC2)Nc2cc(F)ccc2-n2cccc23)c(C)c1 | -5
Cc1ccc2c(=O)c3cccc(CC(=O)O)c3oc2c1C | 6
Cc1oc(C2CCN(C(=O)Nc3ccc4c(c3)CCC4)CC2)nc1C(=O)N(C)C | 114
CC(C)c1cc(C2CCN(Cc3cnc[nH]3)CC2)[nH]n1 | -4
Cc1nn(C)c(Oc2ccc(Cl)cc2)c1CN1CCOC(CN)C1 (stereo unspecified) | -2
c1ccc2nc(C3=NCCN3)cnc2c1 | 20&5
O=C(NCc1ccccc1)c1nc2c(s1)CCN(C(=O)c1ccncc1)CC2 | -74*
O=c1oc2ccc(Br)cc2cc1-c1nc(-c2ccccc2Cl)c2cc(Cl)ccc2n1 | -27
CCCc1cc(C2CCCN2C(=O)Cn2nc(C(F)(F)F)c3c2CCCC3)no1 (stereo unspecified) | -1
Cc1cc(C)n(C)c(=O)c1C(=O)Nc1ccc(N2CCCCC2)c2nonc12 | 55
CCOC(=O)c1[nH]c(CSc2ncnc3sc(C)c(C)c23)c(C(=O)OCC)c1C | -26
Cc1occc1-c1nnc(SCC(=O)Nc2c(C)n(C)n(-c3ccccc3)c2=O)o1 | 6
COc1ccc(-c2cc3nc([C@H](C)NC(=O)C4CCS(=O)(=O)C4)nn3cn2)cc1 (stereo partly specified) | 49
Cc1nc(-c2ccc(F)cc2)sc1CCNC(=O)C(=O)Nc1ccc(Cl)cc1 | -17
Cn1c(=O)n(C)c2cc(CNC(=O)c3cccc4ccnn34)ccc21 | 0
C=CCC1(CC=C)CCCN1C(=O)C(=O)c1ccccc1 | 4
Cc1cc(C(=O)N2CCc3ncc(CN(C)C)n3CC2)no1 | 5
COc1ccc2c3c(n(C)c2c1)[C@H](CO)NCC31CN(C(=O)CC2CC2)C1 | -5
O=C(NCCSCc1ccco1)c1cnn(-c2ccccc2)c1C(F)(F)F | 8
CC(C)NC(=O)c1ccc(-c2cccc(C(F)(F)F)c2)o1 | -60
O=C(Nc1nnc(SCC(=O)N2CCCCC2)s1)c1ccccc1Cl | 0
C[C@H](CO)N1C[C@H](C)[C@@H](CN(C)C(=O)Nc2ccccc2C(F)(F)F)OCc2ccccc2-c2c(n(C)c3ccccc23)C1=O | -33
CC(C)NC(=O)N(C)C[C@@H]1Oc2ccc(NC(=O)Cc3ccccc3)cc2CC(=O)N([C@H](C)CO)C[C@H]1C | -40
COCCN1C(=O)C2CC(=O)OC23C1C(=O)N(C1CCCCC1)C3CC(C)=O (stereo unspecified) | 108
CCOc1ccccc1NC(=O)c1c(O)c2ccccc2n(-c2ccccc2)c1=O | 72
Cc1nc(CCNC(=O)[C@H]2CCCN2S(=O)(=O)c2ccccc2C)cs1 | 5

2 of these compounds, reformatted:
> CC(C)NC(=O)N(C)C[C@@H]1Oc2ccc(NC(=O)Cc3ccccc3)cc2CC(=O)N([C@H](C)CO)C[C@H]1C
  Tg IFNy HTS: -40
> COCCN1C(=O)C2CC(=O)OC23C1C(=O)N(C1CCCCC1)C3CC(C)=O (stereo unspecified)
  Tg IFNy HTS: 108

The listing continues:
SMILES | Tg IFNy HTS
CN1CCc2[nH]nc(C(=O)N3CCN4CCN(C)CC4C3)c2C1 (stereo unspecified) | 6
COCCNC(=O)CC1CC2(CCN(Cc3cnn(C)c3)CC2)Oc2ccccc21 (stereo unspecified) | -45
N#Cc1ccc(OCc2c(Cl)sc3ccc(Cl)cc23)cc1 | -6
COCCN1CCOCC12CCN(Cc1ccn[nH]1)CC2 | -49
O=C(c1cccs1)N1CCCC2(CCN(c3ncccn3)C2)C1 (stereo unspecified) | -37
O=C(C1CCCN(C2CCN(Cc3cnc[nH]3)CC2)C1)N1CCCC1 (stereo unspecified) | -13
COc1cccc(CNC(=O)COc2c(C)ccc(C)c2C)c1OC | 10
CC(C)C#Cc1ccc([C@H]2[C@H]3CN(S(=O)(=O)c4ccccc4)CC(=O)N3[C@H]2CO)cc1 | -55
CC1CCCCN1S(=O)(=O)c1ccc2c(c1)CCC(=O)N2CC(=O)NCc1ccc(N(C)C)cc1 (stereo unspecified) | 40
CC(C)n1cnnc1CN(C)C(=O)CC1C=CCC1 (stereo unspecified) | -15
C/C=C/c1ccccc1[C@H]1[C@@H](C#N)N(c2nc(CC)cs2)[C@@H]1CO | 10
CC(C)NC(=O)c1ccccc1NC(=O)C1COc2ccccc2O1 (stereo unspecified) | -20
CN1CCc2c(c3ccccc3n2Cc2ccccc2)C1 | 10&8&22
CC(C)N(C)Cc1cc(=O)n2c(n1)CN(Cc1nccs1)CCC2 | -2
CCCn1ncc(CN(Cc2ccncc2)Cc2ccc(OC)cc2)c1C | 61
CCn1c(=O)/c(=C2/Sc3ccc(OC)cc3N2C)s/c1=C1/C(=O)N(C)C(=S)N1C | -78*
COc1cccc(NC(=O)N2CC(=O)N3[C@H](CO)[C@H](c4ccc(C#CCC5CCCC5)cc4)[C@H]3C2)c1 | -55
CC1=CCC(Cc2nc3ccccc3o2)C1(C)C (stereo unspecified) | -44
Cc1c(-c2ccccc2)sc(N)c1C#N | -12
c1ccc(CN2CCN(Cc3ccccc3)C2c2cccnc2)cc1 | -14
c1ccc(CN2CCC3(CC2)CC(Nc2ncccn2)C3)nc1 | 170
COc1cccc(Cc2nnc(-c3ccc(-c4cccs4)s3)o2)c1 | 38
CC(=O)N1CCCC(Cc2nccnc2C(=O)O)C1 (stereo unspecified) | -9
Cc1cccc(CN2C[C@@H]3CN(Cc4cnn(C)c4)C[C@H]3C2=O)c1 | -42
COCC1C(=O)N(CC2CC2)CC12CCN(c1ncc(F)cn1)CC2 (stereo unspecified) | 9
Cc1[nH]c2ccccc2c1C(=O)CN1CCCC1 | 42
CCS(=O)(=O)N1CCc2[nH]nc(-c3ccc(F)cc3)c2CC1 | -10
COc1ccc2[nH]cc(CCNC(=O)c3c(-c4cccnc4)noc3C)c2c1 | 9
Cc1[nH]cnc1-c1nccn1-c1cccc(CN2CCCC2)c1 | 3
CC1(C(=O)NCc2ccc(F)cc2F)CCN(C(=O)c2cccc(F)c2)CC1 | 31
Cc1cc(C)nc(Oc2ccccc2F)n1 | -7
Cc1cccc(-c2nnc(-c3nc(NCCN4CCCC4)c4ccccc4n3)o2)c1 | -90*
COc1ccc(NC(=O)Cn2nnc3ccccc3c2=O)cc1 | 30
Cc1cc(C)cc(NC(=O)CN2CCC3(CC2)N=C(c2cccc(F)c2)C(=O)N3)c1 | -2
O=C(NCc1cccc(-n2cccn2)c1)c1ccc(=O)[nH]c1 | 2
CCO[C@@H]1CC[C@@H]2[C@H]1OCCN2S(=O)(=O)c1c(C)nn(C)c1C | -7
C[C@H](CO)N1C[C@H](C)[C@@H](CN(C)C(=O)NC2CCCCC2)Oc2ccc(N(C)C)cc2CC1=O | -24
CSCCCN1CCN(Cc2ncccc2C)CC1 | -5
CC(c1ccncc1)N(C)Cc1cccc2nonc12 (stereo unspecified) | -44
CS(=O)(=O)CS(=O)(=O)Oc1ccc(Cl)cc1 | -18
CCn1ccnc1CN1CCN(c2ncnc3ccccc23)CC1 | -47
O=C(Nc1ccccc1F)N1CCC2(CC1)Nc1cc(F)ccc1-n1cccc12 | 162
CCOc1ccccc1-c1nc(CN(c2ccccc2OC)S(=O)(=O)c2ccccc2)c(C)o1 | -56
COC1CCN(S(=O)(=O)N2CCCCC2CCc2ccccc2)CC1 (stereo unspecified) | 5
Cc1ccsc1CN(C)C(=O)c1nn(C)c2c1CCCC2 | 3

For reference, 5 of the compounds above:
SMILES | Tg IFNy HTS
CCn1ccnc1CN1CCN(c2ncnc3ccccc23)CC1 | -47
O=C(Nc1ccccc1F)N1CCC2(CC1)Nc1cc(F)ccc1-n1cccc12 | 162
CCOc1ccccc1-c1nc(CN(c2ccccc2OC)S(=O)(=O)c2ccccc2)c(C)o1 | -56
COC1CCN(S(=O)(=O)N2CCCCC2CCc2ccccc2)CC1 (stereo unspecified) | 5
Cc1ccsc1CN(C)C(=O)c1nn(C)c2c1CCCC2 | 3

Additional structures
SMILES | Tg IFNy HTS
NC(=O)C1(CCCc2cnccn2)CCCN1 (stereo unspecified) | 23
COc1ccc(C(=O)Nc2ccc(-c3nc(Cn4nc(C)cc4C)c(C)o3)cc2)cc1 | -92*
COC(=O)c1ccccc1NC(=O)c1ccc(F)cc1 | 42&26
CCCNc1ncc(CN2CCCN(c3ccc(F)cc3)CC2)cn1 | 14
Cc1nnc(SCC(=O)c2c(C)[nH]c3ccccc23)s1 | 1
Cc1cc(Nc2cc(C(F)(F)F)nc3c(Cl)cccc23)on1 | -80*
COc1ccc2[nH]c(-c3ccc(-c4ccccc4F)cc3)c(C)c2c1 | 18
CN(C)CCn1cnc(-c2ccccc2)c1-c1ccc(-c2cncnc2)cc1 | -3
Cc1oncc1C(=O)N1Cc2nnn(C)c2C(COCCN(C)C)C1 (stereo unspecified) | -13
O=C(O)CSCC(=O)Nc1ccc(C(F)(F)F)cn1 | -51
CN(C)C(=O)N1CC[C@@H]2[C@@H]1CCC(=O)N2CC1CC1 | 93
N#Cc1c2c(c(Sc3nc4ccccc4[nH]3)n3c1nc1ccccc13)CCCC2 | 92
O=C(O)c1cccnc1N1CCc2onc(-c3cccc(F)c3)c2C1 | 15
COCC(=O)N1C[C@@H]2COC[C@]2(Cc2nnc(C3CC3)o2)C1 | -7

Arranged by molecular weight (descending): four of the compounds above
SMILES | Tg IFNy HTS
CN(C)CCn1cnc(-c2ccccc2)c1-c1ccc(-c2cncnc2)cc1 | -3
O=C(O)c1cccnc1N1CCc2onc(-c3cccc(F)c3)c2C1 | 15
Cc1cc(Nc2cc(C(F)(F)F)nc3c(Cl)cccc23)on1 | -80*
CN(C)C(=O)N1CC[C@@H]2[C@@H]1CCC(=O)N2CC1CC1 | 93
